Bioassay records from PubChem BioAssay.
Sa helicase inh: S. aureus DNA helicase inhibition; inhibition, %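 (tested at about 80 µM)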; AID 485395; 0.05% of 120,000 active; purified S. aureus helicase, fluorescence unwinding assay; about half of the hits fall short of the stated cut;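 active = both duplicates at 50% or more, or one of them with a favoured structure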;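 note: 0% = mean of negative control wells and 100% = mean of positive control wells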
MgrA DNA FP: alters Staphylococcus aureus MgrA binding to DNA. fluorescence polarization. inhibition, %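 (about 10 µg/mL by stock and volumes)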. 0.13% of 84,000 active. AID 602314;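 active = above 50% in either of two replicates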;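 note: 0% = protein plus DNA without compound and 100% = DNA alone without protein; higher means less MgrA bound to DNA so lower polarization; one replicate is shown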
Numbers without * were called inactive.

`c1ccc(-c2csc(Nc3nc(N4CCOCC4)nc(N4CCOCC4)n3)n2)cc1` gave MgrA DNA FP -1.2.
CCSc1nc2ccccc2[nH]1 was read as Sa helicase inh 18 and MgrA DNA FP -0.6.
`O=C(Nc1ccccc1N1CCCC1)c1ccc(CSc2ncn[nH]2)cc1` gave Sa helicase inh 2.
`CCOC(=O)C1=C(C)N=c2s/c(=C/c3ccc(Cl)cc3)c(=O)n2C1c1ccc(OC(C)=O)cc1` (stereo not drawn) gave MgrA DNA FP -0.9.
O=C(Nc1ncnc2sc3c(c12)CCCC3)c1ccc(F)cc1 was read as Sa helicase inh 5 and MgrA DNA FP -2.4.
Screening CN1CCN(C(CC(=O)Nc2cccc3ccccc23)C(=O)O)CC1 (stereo not drawn) returned Sa helicase inh 10.
For O=C(O)c1ccccc1/C=N/Nc1cc(Cl)ccc1Cl the results were MgrA DNA FP 1.2.
Screening CC(C)N(C(=O)CSc1nncn1-c1ccccc1)c1ccccc1 returned Sa helicase inh 6.
CCOC(=O)c1ccc(CSc2n[nH]c(C)n2)o1 was read as Sa helicase inh 12 and MgrA DNA FP 0.1.
Screening CS(=O)(=O)Nc1ccccc1C(=O)NC1CCCC1 returned Sa helicase inh -1 and MgrA DNA FP -1.9.
`CCOC(=O)c1cn2ccccc2c1C(=O)OCC` gave MgrA DNA FP 0.2.
CN1C(=O)Cc2cc(S(=O)(=O)N3CCc4ccccc43)ccc21 was read as Sa helicase inh 9 and MgrA DNA FP -4.2.
`Cc1[nH]c(C)c(S(=O)(=O)NCCc2ccccc2)c1C(=O)N1CCCC1` gave Sa helicase inh 6.
CC1CCc2c(sc3nc(CN4CCCC4)[nH]c(=O)c23)C1 (stereo not drawn) was read as Sa helicase inh -21.
Screening CCOC(=O)Cc1csc(SCn2nnc3ccccc3c2=O)n1 returned Sa helicase inh 2.
COc1ccccc1OCCn1c(=O)sc2ccccc21 was read as Sa helicase inh 5.
`CN1CCN(C(=S)NC(CC(=O)c2ccccc2)c2ccccc2)CC1` (stereo not drawn) gave Sa helicase inh -4 and MgrA DNA FP -1.5.
Screening COc1ccc(CNC(=O)c2cc(OC)c(OC)c(OC)c2)cc1 returned MgrA DNA FP -5.7.
Screening O=C1NC2(CCCCC2)C(=O)N1c1ccc(C(F)(F)F)cc1 returned Sa helicase inh 8 and MgrA DNA FP -0.2.
Screening O=C1NC(=O)C(CCCCO)N1 (stereo not drawn) returned Sa helicase inh 26.
Screening Cc1cn2c3c(=O)n(C)c(=O)n(C)c3nc2n1CCO returned Sa helicase inh 10.
`CC1CN(C2CC(C)(C)NC(C)(C)C2)CCC1=O` (stereo not drawn) gave Sa helicase inh 24 and MgrA DNA FP -0.8.
Screening O=C(CC(SC1CCCCC1)C(=O)O)c1ccc(Br)cc1 (stereo not drawn) returned Sa helicase inh 5 and MgrA DNA FP 4.9.
For CCOCc1cc(-c2csc(N)n2)ccc1OC the results were Sa helicase inh -3.
For CC(NC(=O)Oc1ccccc1)C(c1cccs1)N1CCN(c2ccccc2)CC1 (stereo not drawn) the results were Sa helicase inh -17.
`Cc1cc(OC(=O)C(c2ccccc2)C2CCCC2)c(Cl)c(C)c1Cl` (stereo not drawn) gave MgrA DNA FP -2.6.
Screening Cc1ccc(NC(=O)N2CCOc3ccc(Cl)cc32)c(C)c1 returned Sa helicase inh 11.
For CC1Cc2ccccc2N1C(=O)Cn1nnc(-c2ccccc2F)n1 (stereo not drawn) the results were Sa helicase inh -15 and MgrA DNA FP -0.7.
Screening CC(C)N(C(=O)COc1c(CO)cc(Br)cc1CO)c1ccccc1 returned Sa helicase inh -22.
For CCCc1ccc(-c2ccc(C(N)=O)cc2)cc1 the results were MgrA DNA FP -2.2.
Cc1cccc(N2C(=O)CC(N(O)c3ccccc3)C2=O)c1C (stereo not drawn) was read as Sa helicase inh -16.
`COc1cc(NC(=O)Cn2cnc3c2c(=O)n(C)c(=O)n3C)cc(OC)c1OC` gave Sa helicase inh 17.
`CCSCCOC(=O)C1=C(C)NC2=C(C(=O)CCC2)C1c1cc2c(cc1Br)OCO2` (stereo not drawn) gave MgrA DNA FP -3.3.
CCC(C)(C)NC(=O)Cc1ccc(C)cc1 was read as Sa helicase inh 7 and MgrA DNA FP -0.9.
`CC(=O)N1CC2c3ccccc3CCN2C1c1ccccc1` (stereo not drawn) gave Sa helicase inh -1 and MgrA DNA FP -0.4.
`COc1ccc(NC(=S)NNC(=O)c2ccncc2)cc1` gave MgrA DNA FP -0.1.
`CC(C)OC(=O)CN1C(=O)C(C)(C)Oc2ccc(C(=O)Nc3ccccc3)cc21` gave Sa helicase inh -17 and MgrA DNA FP 1.1.
`CCN(CC)S(=O)(=O)c1ccc2c(c1)nc(SCC(=O)Nc1cccc(C)c1C)n2CC` gave Sa helicase inh -4.
Screening CN(C)c1ccc(/C=C(\C#N)NC(=O)c2ccccc2)cc1 returned Sa helicase inh 6 and MgrA DNA FP -2.2.
CCOc1ccc2c(c1)C(SCC(=O)N1CCN(c3ncccn3)CC1)CC1(CCCCC1)O2 (stereo not drawn) was read as Sa helicase inh -14.
Screening CCOc1ccc(N=C2SC(C(=O)Nc3ccccc3OC)CC(=O)N2Cc2ccc3c(c2)OCO3)cc1 (stereo not drawn) returned MgrA DNA FP -1.0.
Nc1nc(N)nc(-c2ccccc2C(F)(F)F)n1 was read as MgrA DNA FP -1.9.
O=C1CCCCC1Cc1c(O)ccc2ccccc12 (stereo not drawn) was read as Sa helicase inh 6.
CC1=CCC2C(=O)N(C(C)c3ccccc3)C(=O)C2C1 (stereo not drawn) was read as Sa helicase inh 15 and MgrA DNA FP 1.3.
Screening O=C(/C=C/c1cccs1)N1CCN(Cc2ccc(Br)s2)CC1 returned Sa helicase inh -6.
Screening Cc1cc(NC(=O)c2cccs2)cc(C)c1OCC(=O)N1CCOCC1 returned Sa helicase inh 8.
Screening COc1ccc(-n2c(SCC(=O)N3CCCCC3)nc3c([nH]c4ccccc43)c2=O)cc1 returned Sa helicase inh 16.
For CCN(CC)C(=S)SCc1cc(=O)n2ccsc2n1 the results were Sa helicase inh 0.
COC(CN(C)C(=O)c1ccc2c(c1)NC(=O)c1ccccc1S2)OC was read as Sa helicase inh 16 and MgrA DNA FP -0.3.
For Cc1csc(-c2ccc(O)cc2)n1 the results were Sa helicase inh 11.
`Cc1cc(/C=C/c2ccc3cc(N(C)C)ccc3[n+]2C)c(C)n1-c1ccccc1` gave MgrA DNA FP 6.7.
Screening Cc1ccc(Oc2ncccc2NS(C)(=O)=O)c2c1CCC2 returned MgrA DNA FP -1.9.
Cc1ccc(-c2nc3cc(NC(=O)CC(C)C)ccc3o2)cc1Cl was read as Sa helicase inh 4 and MgrA DNA FP 5.4.
For COc1ccccc1CN(C)C(=O)CN1CCN(C/C=C/c2ccccc2)CC1 the results were Sa helicase inh 4.
CC1(C)Cc2cccc(OCC(=O)NCCCN3CCOCC3)c2O1 was read as Sa helicase inh 22.
Screening OCCCCCCNC(=S)Nc1ccc(F)cc1Br returned MgrA DNA FP 1.3.
Screening CCCCC1CCC(C(=O)N2CC(C(N)=O)Oc3ccccc32)CC1 (stereo not drawn) returned Sa helicase inh -10.
For CCN(CC)c1ccc2cc(-c3csnn3)c(=O)oc2c1 the results were Sa helicase inh -91.
For CN(C(=O)COC(=O)c1ccc(C#N)cc1)c1ccccc1 the results were Sa helicase inh -18 and MgrA DNA FP 0.2.
`CC(C)(C)c1ccc(C(=O)N2CCN(c3cccc4[nH]ccc34)CC2)cc1` gave Sa helicase inh -28.
`Cc1ccccc1CSCc1nnc(-c2ccccc2)o1` gave Sa helicase inh 2.
`Oc1ccc2ccccc2c1C=Nc1ccccc1` gave Sa helicase inh -194 and MgrA DNA FP 28.
`COc1cc(C2(c3ccc(N)c(OC)c3)CCCCC2)ccc1N` gave Sa helicase inh -15.
CC1Oc2ccccc2OC1(O)c1ccc(Br)cc1 (stereo not drawn) was read as Sa helicase inh -2 and MgrA DNA FP -0.2.
`CN1CCN(/C=C(\C#N)S(=O)(=O)c2ccc(Cl)cc2)CC1` gave MgrA DNA FP 1.6.
COc1cc(N(C(=O)c2ccco2)C(C(=O)NC2CCCC2)c2ccc(C)cc2)ccc1-n1cnnn1 (stereo not drawn) was read as Sa helicase inh -2 and MgrA DNA FP 1.2.
`CCN(C(=O)C(C)Sc1nc(C)cs1)c1ccccc1` (stereo not drawn) gave Sa helicase inh 2.
`O=C(O)CCC(=O)c1ccc(Br)cc1` gave Sa helicase inh -20 and MgrA DNA FP -1.1.
Screening CCOC(=O)CSc1nc2ccccc2n2cnnc12 returned Sa helicase inh 7 and MgrA DNA FP -1.4.
For O=C(Cn1c(=O)c2cccn2c2ccccc21)NCCCN1CCCCC1 the results were Sa helicase inh 4 and MgrA DNA FP -1.2.
`O=C(/C=C/c1cc(Cl)c2c(c1)OCCO2)N1CCCN(S(=O)(=O)c2ccc(F)cc2)CC1` gave Sa helicase inh 9.
For CC1CC(=O)Nc2ccccc2N1C(=O)CSc1nnc(COc2ccccc2Cl)n1C1CC1 (stereo not drawn) the results were Sa helicase inh 0.
For O=C(C1CC1c1ccccc1)N1CCOCC1 (stereo not drawn) the results were Sa helicase inh 1 and MgrA DNA FP 0.0.
Screening CCOc1ccccc1CNC(=O)Cc1cccs1 returned Sa helicase inh -13.
For CCC(C)NCc1ccc(C(=O)OC)o1 (stereo not drawn) the results were Sa helicase inh 14 and MgrA DNA FP -3.5.
CCN(CC(=O)NCc1cccs1)C(=O)C1=COCCO1 was read as Sa helicase inh 6.
`CC1CN(S(=O)(=O)c2ccc(C(=O)N3CCc4ccccc43)cc2)CC(C)O1` (stereo not drawn) gave Sa helicase inh 3.
C=CCNc1oc(CC(C)C)nc1C#N was read as Sa helicase inh -4 and MgrA DNA FP 1.9.
`O=C1/C(=C/c2cccc(Cl)c2)CC/C1=C\c1cccc(Cl)c1` gave Sa helicase inh 10 and MgrA DNA FP 1.4.
Screening CCOC(=O)C1CCN(c2ccc3nncn3n2)CC1 returned Sa helicase inh -5.
NS(=O)(=O)c1cc([N+](=O)[O-])c(N2CCNCC2)s1 was read as MgrA DNA FP -0.5.
For O=C1CC(c2ccccc2)Sc2nc(-c3ccccc3)nn21 (stereo not drawn) the results were Sa helicase inh -22.
Screening CCn1c(=N)n(CCCOc2ccc(Br)cc2)c2ccccc21 returned Sa helicase inh 3 and MgrA DNA FP 0.7.
O=C(NC1CCN(c2nc(-c3ccccc3)cs2)CC1)c1cccs1 was read as Sa helicase inh 12 and MgrA DNA FP -0.9.
For CN(C)Cn1c(O)c(N=NC(=O)CO/N=C/c2ccccc2)c2ccccc21 the results were Sa helicase inh -6.
For O=C(CN1CCN(CC(=O)N2CCCC2)CC1)NC(=O)Nc1ccccc1F the results were Sa helicase inh -2.
Screening CCOc1cc2sc(N3CCC(C(=O)N(C)Cc4ccccc4)CC3)nc2cc1Br returned Sa helicase inh 1 and MgrA DNA FP 1.5.
Screening O=P1(c2ccccc2O)COc2ccccc2OC1 returned Sa helicase inh -16.
O=C(O)CCCC(=O)Nc1ccc(Oc2cccc(C(F)(F)F)c2)nc1 was read as MgrA DNA FP -0.1.
Screening Fc1ccc(Nc2nc3ccccc3o2)c(F)c1 returned Sa helicase inh 19 and MgrA DNA FP -0.8.
CC1(c2ccc3c(c2)OCO3)NC(=O)N(CC(=O)c2ccc3c(c2)CCC3)C1=O (stereo not drawn) was read as Sa helicase inh 18.
O=C(O)C12CC3CC(CC(Br)(C3)C1)C2 was read as MgrA DNA FP 1.2.
COC(=O)C(C)Nc1ccc(C)cc1 (stereo not drawn) was read as Sa helicase inh -39.
`CC(C)(C)C(=O)c1sc2sc(C(=O)C(C)(C)C)c(N)c2c1N` gave MgrA DNA FP 12.
CC1(C)OCC(C2OC(=O)C3OC(C)(C)OC32)O1 (stereo not drawn) was read as Sa helicase inh 6 and MgrA DNA FP -1.8.
CC(C)NC(=O)COc1ccc2c(c1)C(=O)CC(C)(C)O2 was read as Sa helicase inh 4 and MgrA DNA FP -1.3.
`O=C1/C(=C/c2ccc(N3CCOCC3)cc2)COc2ccccc21` gave Sa helicase inh -59.
CCn1c(=O)c(CNc2ccc(N3CCC(O)CC3)cc2)cc2cc(OC)ccc21 was read as Sa helicase inh -17.
O=C(Cn1cnc2onc(-c3ccc(Cl)cc3)c2c1=O)NCCCN1CCCC1 was read as Sa helicase inh -29.
For Cc1ccc2c(CNCC(C)(C)CN(C)C)cc(=O)oc2c1 the results were Sa helicase inh 19.
`CCC(CC)c1nnc(NC(=O)CCc2c(C)noc2C)s1` gave Sa helicase inh -15.
`O=C(/C=C/c1cn(-c2ccccc2)nc1-c1ccc(F)cc1)NCc1ccco1` gave Sa helicase inh 2.
`Cc1c(OCc2nnc(SCC(=O)Nc3nnc(C4CC4)s3)n2C)ccc2ccccc12` gave Sa helicase inh 7 and MgrA DNA FP -1.4.

By substructure: the entries above with a COOH group (six)
Screening CN1CCN(C(CC(=O)Nc2cccc3ccccc23)C(=O)O)CC1 (stereo not drawn) returned Sa helicase inh 10.
For O=C(O)c1ccccc1/C=N/Nc1cc(Cl)ccc1Cl the results were MgrA DNA FP 1.2.
Screening O=C(CC(SC1CCCCC1)C(=O)O)c1ccc(Br)cc1 (stereo not drawn) returned Sa helicase inh 5 and MgrA DNA FP 4.9.
`O=C(O)CCC(=O)c1ccc(Br)cc1` gave Sa helicase inh -20 and MgrA DNA FP -1.1.
O=C(O)CCCC(=O)Nc1ccc(Oc2cccc(C(F)(F)F)c2)nc1 was read as MgrA DNA FP -0.1.
O=C(O)C12CC3CC(CC(Br)(C3)C1)C2 was read as MgrA DNA FP 1.2.

Structures shown so far containing a furan ring, fused or not:
CCOC(=O)c1ccc(CSc2n[nH]c(C)n2)o1 was read as Sa helicase inh 12 and MgrA DNA FP 0.1.
COc1cc(N(C(=O)c2ccco2)C(C(=O)NC2CCCC2)c2ccc(C)cc2)ccc1-n1cnnn1 (stereo not drawn) was read as Sa helicase inh -2 and MgrA DNA FP 1.2.
For CCC(C)NCc1ccc(C(=O)OC)o1 (stereo not drawn) the results were Sa helicase inh 14 and MgrA DNA FP -3.5.
`O=C(/C=C/c1cn(-c2ccccc2)nc1-c1ccc(F)cc1)NCc1ccco1` gave Sa helicase inh 2.

Some of the compounds tested (hit frequency here may not be typical).
